# Screening data as filed in PubChem BioAssay.
# Vaccinia mCherry – inhibitors of vaccinia virus infection (mCherry reporter signal); Vaccinia virus mCherry reporter infection, fluorescence; about a quarter of the inactives have no number; Potency, µM (doses to about 36.5 µM), without a hit: at the highest dose activity change, negative = inhibition, usual class: inhibitors; 0.63% of 310,000 active; active = well fitted inhibition curve with a large enough effect; inconclusive = small, poorly fitted or top-dose-only effect; inactive = no such curve, though single readings can be large or run the other way; tested in A549 cells; also: nearly all actives have a fitted effect of over 35% in size; inactives centre near -10
# VACV Venus inh – inhibitors of vaccinia virus (Venus reporter) | Vaccinia virus Venus reporter expression, fluorescence | Potency, µM (doses to about 36.5 µM), for inactives: top-dose activity change, negative = inhibition, usual class: inhibitors | AID 720580 | 0.46% of 330,000 active; active means well fitted inhibition curve with a large enough effect; inconclusive means small, poorly fitted or top-dose-only effect; inactive means no such curve, though single readings can be large or run the other way; tested in A549 cells; also: nearly all actives have a fitted effect of over 30% in size; inactives centre near -10
# Numbers without * were called inactive; i = inactive; ? = inconclusive; / = not tested or not shown; & = joins results of further samples; [ ] = remark or other dose. % is scaled to controls: 0 for no effect and ±100 for the full control effect; potency is read from the fitted curve at half-maximal effect.
# Each structure is followed by: Vaccinia mCherry, VACV Venus inh
Cc1csc2nc(-c3ccc(NS(=O)(=O)c4cc(F)ccc4F)cc3)cn12
  -10%, -7%
CC(=O)Nc1cc(-c2cccc(C(=O)NCCN(C)C)c2)cn2c(-c3ccc(S(C)(=O)=O)cc3)cnc12
  i, 5%
O=C(NCCS(=O)(=O)N1CCN(c2ccccc2F)CC1)c1ccc(Cl)cc1
  i, -9%
CCCCc1nnc(NC(=O)CN2C(=O)NC3(CCCCC3)C2=O)s1
  -8%, ?
CCO[C@@H]1OC(C(=O)NC2CC2)=C[C@H](c2csc3ccccc23)[C@H]1CCCO
  i, -11%
COc1ccc(N2CN=C3SCC(=O)N3C2)cc1
  -9%, -3%
Cc1c(NC(=O)c2cc([N+](=O)[O-])ccc2N2CCOCC2)cccc1-c1nc2ccccc2o1
  -25%, -29%
Cc1nc2ccn(Cc3cccnc3)c(=O)c2cc1C(=O)NCc1ccc(Cl)cc1
  i, -5%
CCCCn1nnnc1C(c1cc2ccccc2o1)N(CCC#N)Cc1ccccc1 (configuration not stated)
  -12%, -4%
CC1CCN(C(=O)CCCl)c2ccccc21 (configuration not stated)
  ?, ?
CC(=O)N(OCc1ccc(OC(C)C)c(Cl)c1)C(C)=O
  -10%, -11%
CC1(C)Cc2ccccc2-c2nnc(-c3ccco3)n21
  -1%, -11%
Cn1cccc1Cc1nnc(SCC(=O)Nc2ccc3c(c2)OCCO3)n1-c1ccc(F)cc1
  -8%, -9%
Cc1cc(NC(=O)CCCSc2nc(-c3ccco3)cc(C(F)(F)F)n2)no1
  /, -27%
COc1ccc(C(O)(CCN2CCOCC2)c2ccccc2)cc1 (configuration not stated)
  -2%, -6%
CCOc1ccc(OCCC(=O)OCC(=O)NC(C)c2ccccc2)cc1 (configuration not stated)
  -15%, -15%
O=C(N/N=C/c1ccccc1[N+](=O)[O-])c1ccc2nc[nH]c2c1
  -23%, -8%
COc1ccc(NC(=O)c2cc(=O)[nH]c(=O)[nH]2)cc1S(=O)(=O)Nc1ccccc1Cl
  i, -5%
OCCN(CCO)c1cc2c3ccccc3ccc2c2ccccc12
  ?, -23%
COc1cc(OC)cc(-c2c(-c3cccs3)c3cc(-c4ccc(OCc5ccccc5)cc4)ccc3n2C)c1
  -14%, 11%

# Looked up above.
# Under Vaccinia mCherry, `COc1cc(OC)cc(-c2c(-c3cccs3)c3cc(-c4ccc(OCc5ccccc5)cc4)ccc3n2C)c1` has the entry -14%
# Under VACV Venus inh, `Cc1cc(NC(=O)CCCSc2nc(-c3ccco3)cc(C(F)(F)F)n2)no1` has the entry -27%
# Under Vaccinia mCherry, `COc1ccc(N2CN=C3SCC(=O)N3C2)cc1` has the entry -9%

# Additional structures follow:
# Each structure is followed by: Vaccinia mCherry, VACV Venus inh
Cc1ccc2nc(NC(=O)COc3ccc(F)cc3)sc2c1
  18%, 4%
CCn1c(SCC(=O)NC2CCCCC2)nnc1-c1ccccc1F
  7%, 4%
CCOC(=O)C1=C(O)/C(=C\c2cccc(OC)c2)N=C1C
  -6%, -15%
COc1cccc(Cn2cc(C(=O)c3ccc(Cl)cc3)c(=O)c3ccccc32)c1
  -12%, -17%
COc1ccc(-n2nc(C(=O)O)nc2-c2ccccc2)cc1
  /, 4%
CCOC(=O)Cc1csc(NC(=O)CSc2nnc(-c3ccc(F)cc3)o2)n1
  -9%, -9%
COc1ccc(OCCSc2nnnn2C2CCCCC2)cc1
  /, -27%
Cc1ccc(-n2ncc3c(NCc4ccccc4)ncnc32)cc1C
  -4%, -11%
Cc1cc(C)n2c(SCC(=O)N(CC(C)C)c3c(N)n(CC(C)C)c(=O)[nH]c3=O)nnc2n1
  i, -4%
CCc1ccccc1NC(=O)CSc1nnc(-c2ccc(OC)cc2)s1
  -13%, -4%
CCOC(=O)Cc1cnc(NC(=O)CSc2nc(N)cc(=O)[nH]2)s1
  i, -8%
FC(F)Oc1cccc2cccnc12
  i, -6%
CC(C)C[C@H](NC(=O)C1CCC(CNC(=O)[C@@H]2CCCN2C(=O)OC(C)(C)C)CC1)C(=O)O (some centres not stated)
  -25%, -10%
COc1ccc(CSc2nc3ccccc3c(=O)[nH]2)cc1F
  i, -13%
COc1ccc2ccc(O)c(CN(C)CC(=O)Nc3ccccc3C(F)(F)F)c2c1
  ?, -22%
Cc1cccc(NS(=O)(=O)c2cc3c(cc2C)n(C)c(=O)c(=O)n3C)c1
  -20%, -17%
CCN(CC(=O)NC1CCS(=O)(=O)C1)Cc1nc2c(Br)cc(Br)cc2c(=O)[nH]1 (configuration not stated)
  5%, -11%
COc1ccc(C(=O)CSc2nc(=O)n(Cc3cccnc3)c3c2CCC3)cc1
  -25%, -18%
CC1CCN(c2ccc3c(c2)S(=O)(=O)c2cccc(C(=O)NC4CC4)c2C3=O)CC1
  i, -7%
Cc1ccc(S(=O)(=O)N(C)c2ccc(C(=O)Nc3cccc(C)n3)cc2)cc1
  -17%, -18%
CC(O)(c1ccccc1)c1nc(-c2ccc3c(c2)OCO3)cs1 (configuration not stated)
  i, 0%
CC(=O)Nc1cccc(C(=O)NN2C(=O)NC3(CCC(C)CC3)C2=O)c1 (configuration not stated)
  i, 0%
COc1ccc(OC)c(NC(=O)COc2coc(CN3CCc4ccccc43)cc2=O)c1
  -1%, -20%
C=CCN1C(=O)C2C(C(=O)NC3CCCC3)C3C=CC2(O3)C1C(=O)NC1CCCC1 (configuration not stated)
  -14%, 9%
COc1ccc(C(C)NC(=O)c2ccccc2)cc1 (configuration not stated)
  i, -13%
COc1cc(S(=O)(=O)NCc2ccc(F)cc2)ccc1-n1cnnn1
  -1%, -2%
COc1ccc(NC(=O)CN(C)C(=O)CC2CCCC2)cc1
  i, -3%
O=C(CCc1nnc2n(Cc3ccc(Cl)cc3)c(=O)c3ccccc3n12)NCCN1CCCC1
  -8%, ?
CC(C)C(=O)N(Cc1ccccc1)c1ccccn1
  -7%, -2%
CCOC(=O)Nc1c2ccccc2nc2ccccc12
  -6%, -12%
C=CCN(c1cccc(C(F)(F)F)c1)S(=O)(=O)c1cccc(C(=O)OCC(=O)Nc2ccccc2)c1
  -14%, -4%
O=C1CC(c2ccccc2)CN1C(=O)c1ccccc1 (configuration not stated)
  /, -4%
CNC(=O)COC(=O)/C=C/c1ccc(F)cc1
  1%, 8%
S=c1[nH]nc(-c2cccs2)n1/N=C/c1cccs1
  -8%, -1%
CCOc1ccc(N(Cc2ccccc2)C(=O)c2nc(SC)ncc2Cl)cc1
  -18%, -12%
Cc1c(N(C)S(=O)(=O)c2ccc(Cl)c(C(=O)N3CCC(C(N)=O)CC3)c2)c(=O)n(-c2ccccc2)n1C
  -19%, -14%
O=C(COc1ccccc1Cl)NC(=O)NC1CCCC1
  -12%, -5%
O=[N+]([O-])c1cccc(CSc2nc3ccccc3[nH]2)c1
  -24%, -15%
COc1ccc(/C=C/C(=O)O)cc1S(=O)(=O)N1CCC(C)CC1
  -9%, -10%
O=C(Cn1c(=O)n(CC2CCCO2)c(=O)c2ccccc21)N1CCN(c2ccccc2)CC1 (configuration not stated)
  /, -9%

# Pulled by compound from the entries so far, two records:
# Each structure is followed by: Vaccinia mCherry, VACV Venus inh
C=CCN(c1cccc(C(F)(F)F)c1)S(=O)(=O)c1cccc(C(=O)OCC(=O)Nc2ccccc2)c1
  -14%, -4%
O=C(CCc1nnc2n(Cc3ccc(Cl)cc3)c(=O)c3ccccc3n12)NCCN1CCCC1
  -8%, ?

# Next results follow.
# Each structure is followed by: Vaccinia mCherry, VACV Venus inh
O=C(Cc1ccccc1)Nc1ccc(NC(=O)c2cccnc2)cc1
  i, -4%
S=C1SCN(Cc2ccccn2)CN1Cc1ccco1
  i, -10%
CC(C)CC(c1nnnn1Cc1ccc(F)cc1)N1CCC(C(N)=O)CC1 (configuration not stated)
  -1%, -1%
CCN(Cc1cc(=O)n2ccsc2n1)Cc1nc2ccccc2c(=O)[nH]1
  -3%, 2%
C=CCCN([C@@H](C)C(=O)OC)S(=O)(=O)c1ccccc1Br
  i, -11%
O=C(COc1ccccc1[N+](=O)[O-])Nc1ccc(Br)cc1
  -26%, -26%
CCOC(=O)Cn1c(C)cc(=O)c2ccccc21
  -10%, -7%
O=C(O)c1cn(-c2ccccc2)nc1-c1ccc(Cl)cc1
  i, -11%
COc1ccc(N(C)S(=O)(=O)c2cccc(C(=O)NC3=NCCS3)c2)cc1
  /, -2%
CC(=O)N1CCc2c(sc3c2c(=O)n(CCc2ccccc2)c(=O)n3Cc2cccc(C)c2)C1
  -23%, -18%
COc1ccccc1N1CCN(c2ccc3c(c2)S(=O)(=O)c2cccc(C(=O)NCC4CC4)c2C3=O)CC1
  -8%, -25%
Cc1cc(C(=O)Nc2nnc(C(F)(F)F)s2)no1
  0%, -3%
CC(=C/C(=O)O)/C=C/c1ccc(Cl)o1
  -21%, -13%
Fc1ccccc1N1CCN(Cc2nnc(-c3ccc4c(c3)OCO4)o2)CC1
  0%, -2%
Cc1ccc(NC(=O)c2cc(-c3ccc(C)o3)nc3ccccc23)cc1
  -14%, -10%
C[C@@H]1CN([C@H](C)CO)C(=O)c2c(c3ccccc3n2C)-c2ccccc2CO[C@H]1CN(C)C(=O)Nc1ccccc1
  ?, ?
CC(=O)Nc1sc(N/N=C\c2ccccc2Cl)nc1-c1cccs1
  11µM*, ?
Cc1nn(-c2ccc(F)cc2)c2nc(N)c(C#N)c(-c3ccc(O)c(O)c3)c12
  ?, ?
C=CCN1CCN(c2ccncc2S(=O)(=O)N2CCOCC2)CC1
  /, -12%
CO[C@@H]1[C@@H](OC2OC(C)C(OC3CC(C)(O)C(OC(=O)CC(C)C)C(C)O3)C(N(C)C)C2O)[C@@H](CC=O)C[C@@H](C)C(=O)/C=C\C2O[C@H]2C[C@@H](C)OC(=O)C[C@H]1OC(C)=O (some centres not stated)
  -19%, ?
COc1ccccc1NC(=O)c1cc(S(=O)(=O)NCc2ccccc2)ccc1F
  -7%, -22%
COc1ccc(NC(=O)/C(C#N)=C\c2ccc(N3CCOCC3)o2)cc1
  ?, 79%[activator]
CCNC(=S)N/N=C1\C(=O)c2cccc3cccc1c23
  i, -12%
CCOC(=O)c1oc2cc(O)cc(O)c2c(=O)c1OCc1ccccc1
  0%, 6%
O=C(OC1Cn2c(=O)ccc(=O)n2C1)c1ccccc1
  -13%, -13%
CCOC(=O)C1=NN(C(=O)c2ccco2)C2(CC2)C1
  -5%, -8%
O=c1cc(-c2ccccc2)oc2ccc(Br)cc12
  7%, ?
CCN(CC)C(=O)CN1CCN(c2ncccn2)CC1
  -12%, -6%
COc1ccc(/C=C/C(=O)OCc2nc3ccccc3c(=O)[nH]2)c(OC)c1
  i, -13%
CC(C)C[C@H]1CNC(=S)N1CC1CCN(CCCCc2ccccc2)CC1
  -18%, -17%
COc1ccc(C(=O)C(C)OC(=O)CN2C(=O)c3ccccc3C2=O)cc1 (configuration not stated)
  i, -13%
Nc1ccc2cc3ccccc3cc2c1
  i, -3%
O=C(c1cc2ncc(Br)cn2n1)N1CCCCC1
  1%, 2%
O=C(N/N=C/c1ccoc1)c1ccc([N+](=O)[O-])cc1
  -5%, 1%
Cc1ccc(F)cc1CNC(=O)c1cc(COc2ccc3ncccc3c2)on1
  ?, -7%
O=C(Nc1ccc(Cl)cc1)C1CCN(C(=O)c2cccs2)CC1
  33%[activator], -11%
CC(=O)c1ccc(NC(=O)C(C)Sc2ccccn2)cc1 (configuration not stated)
  -2%, -5%
COc1cccc(-c2cc(CNC(=O)[C@H]3O[C@@H](n4ccc(N)nc4=O)[C@H](O)[C@@H]3O)no2)c1
  35%[activator], 9%
C[C@H](CO)N1C[C@H](C)[C@H](CN(C)C(=O)OCc2ccccc2)OCc2cnnn2CCCC1=O
  i, -2%
COc1ccc(CCNC(=O)C2CCCN(S(=O)(=O)c3ccc(OC)cc3)C2)cc1 (configuration not stated)
  -11%, -10%
CCOC(=O)C1=C(c2ccccc2)NC(SCC)=C(C#N)C1c1cccnc1 (configuration not stated)
  /, 3%
COC(=O)c1cc2c(cc1NC(=O)c1cnn(-c3ccccc3)c1-n1cccc1)OCO2
  -6%, 1%
COc1ccc(Cc2c(-c3ccc(OC)c(OC)c3)nc3cc(C)c(Br)c(C)n23)c(C)c1
  -4%, -3%
COC(=O)C1N[C@@H]([C@@H](NC(=O)COc2ccccc2)C(=O)NCc2ccsc2)SC1(C)C (some centres not stated)
  -21%&-14%, -24%&-8%
CC(C)c1ccc(C2NC(=S)NC3=C2C(=O)CCC3)cc1 (configuration not stated)
  -16%, -17%
Cc1cc(S(=O)(=O)Nc2cccc(-c3ccc(N4CCOCC4)nn3)c2)c(C)cc1Cl
  2%, -4%
CC(=O)c1cccc(N(CC(=O)NC2CCCC2)C(=O)c2csnn2)c1
  -7%, 20%
Clc1cccc(OCCN2CCCC2)c1
  i, -17%
COCC1CCCN(C(=O)c2ccc3nc(Cc4cccc(Cl)c4)oc3c2)C1 (configuration not stated)
  -2%, -17%
CCc1cccc(CC)c1NS(=O)(=O)c1ccc2c(c1)CCN2C(=O)C1CC1
  -10%, -12%
Cc1nc(SCC(=O)NCc2ccccc2)c2c(=O)n(C)c(=O)n(C)c2n1
  5%, 3%
CCC1CCCCN1CCCNC(=O)CNC(=O)c1nn(-c2ccc(OC)cc2)c(=O)c2ccccc12 (configuration not stated)
  -1%, -5%
C=CCc1c(C)nc(SCCC)[nH]c1=O
  i, -12%
COc1ccc(/C=N/NC(=O)C(O)(c2ccccc2)c2ccccc2)cc1OC
  -14%, -14%
Cc1ccc(NC(=O)COc2ccc(C3SCCS3)cc2)cc1
  -3%, -20%
CCOC(=O)C1Nc2ccc(Br)cc2C2C=CCC12 (configuration not stated)
  i, 4%
N#Cc1cccc(NC(=O)c2ccc3c(c2)N(Cc2cccc(Cl)c2)C(=O)c2ccccc2S3(=O)=O)c1
  -12%[7.34 µM], -8%[7.34 µM]
